MLL AF4-AF9 inh – MLL-AF4/AF9 protein interaction inhibition; P42568; AlphaScreen, biotin-AF4 peptide binding to FLAG-AF9; inhibition, % at 10 µM; hit rate 0.47% among 350,000; AID 651704;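 active means every replicate reaching a set inhibition limit, whatever the replicate mean, cut at about 25% in these data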;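 further: 0% = plate neutral control median and 100% = total signal loss; the record names both 10 and 1 µM as test concentration; the first replicate is given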
Target sequence (P42568 whole entry, looked up): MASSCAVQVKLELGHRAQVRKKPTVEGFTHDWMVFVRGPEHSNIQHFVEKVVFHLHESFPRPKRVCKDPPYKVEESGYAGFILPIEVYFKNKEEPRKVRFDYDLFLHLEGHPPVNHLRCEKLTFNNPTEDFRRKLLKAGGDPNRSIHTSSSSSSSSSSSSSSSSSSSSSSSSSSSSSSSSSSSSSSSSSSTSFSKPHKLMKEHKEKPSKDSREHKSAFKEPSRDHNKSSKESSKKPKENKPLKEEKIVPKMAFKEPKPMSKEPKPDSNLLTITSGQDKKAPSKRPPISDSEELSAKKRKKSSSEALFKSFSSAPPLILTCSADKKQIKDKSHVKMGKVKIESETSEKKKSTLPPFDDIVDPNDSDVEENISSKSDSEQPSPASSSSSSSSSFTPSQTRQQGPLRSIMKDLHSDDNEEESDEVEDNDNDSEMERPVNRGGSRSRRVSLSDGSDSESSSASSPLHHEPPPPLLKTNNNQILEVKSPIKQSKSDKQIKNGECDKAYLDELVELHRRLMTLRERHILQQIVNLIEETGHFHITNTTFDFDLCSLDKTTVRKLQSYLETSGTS
FGF22 binding – shifts melting point of recombinant human FGF22; hit rate 1.5% among 340,000; recombinant FGF22 thermal shift, SYPRO orange fluorescence; percent of sucrose octasulfate shift, DMSO zero; Q9HCT0; calls only at 9.99 µM;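 active means melting point raised past a set limit in the mean and every replicate; three in four hits are not shown here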
Target sequence (Q9HCT0 whole entry, looked up): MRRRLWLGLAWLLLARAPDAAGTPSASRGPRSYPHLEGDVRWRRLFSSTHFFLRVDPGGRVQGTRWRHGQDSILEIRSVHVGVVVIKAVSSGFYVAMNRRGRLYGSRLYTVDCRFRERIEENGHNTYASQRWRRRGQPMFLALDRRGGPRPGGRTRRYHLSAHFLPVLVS
* = called active by the depositor; & = joins results of further samples. An excerpt (hit frequency here may not be typical).

The first 5 entries, to show the layout:
How did CCC(=O)N[C@@H]1CC[C@@H](CCn2cc(CN(C)C)nn2)O[C@H]1CO do in these assays?
MLL AF4-AF9 inh: -2.6; FGF22 binding: inactive

Results for COCC(=O)N1CC2(C1)[C@H](c1ccccc1)[C@@H](CO)N2Cc1ccccc1OC ?
MLL AF4-AF9 inh: 0.2; FGF22 binding: inactive

Results for CNC[C@@H]1Oc2ccc(NC(=O)Cn3cnnn3)cc2CC(=O)N([C@@H](C)CO)C[C@H]1C ?
MLL AF4-AF9 inh: -4.0; FGF22 binding: inactive

What do the screens show for `COc1ccc(NC(=O)N(C)C[C@@H]2Oc3c(NC(=O)Nc4ccc(F)cc4)cccc3C(=O)N([C@@H](C)CO)C[C@@H]2C)cc1`?
MLL AF4-AF9 inh: 1.3; FGF22 binding: inactive

How did COCC(=O)N1C[C@@H](C)[C@@H](OC)CN(C)C(=O)c2ccc(NC(=O)C3CCC3)cc2OC[C@H]1C do in these assays?
MLL AF4-AF9 inh: -3.5; FGF22 binding: inactive

This part in full (from the top)
How did CCC(=O)N[C@@H]1CC[C@@H](CCn2cc(CN(C)C)nn2)O[C@H]1CO do in these assays?
MLL AF4-AF9 inh: -2.6; FGF22 binding: inactive

Results for COCC(=O)N1CC2(C1)[C@H](c1ccccc1)[C@@H](CO)N2Cc1ccccc1OC ?
MLL AF4-AF9 inh: 0.2; FGF22 binding: inactive

Results for CNC[C@@H]1Oc2ccc(NC(=O)Cn3cnnn3)cc2CC(=O)N([C@@H](C)CO)C[C@H]1C ?
MLL AF4-AF9 inh: -4.0; FGF22 binding: inactive

What do the screens show for `COc1ccc(NC(=O)N(C)C[C@@H]2Oc3c(NC(=O)Nc4ccc(F)cc4)cccc3C(=O)N([C@@H](C)CO)C[C@@H]2C)cc1`?
MLL AF4-AF9 inh: 1.3; FGF22 binding: inactive

How did COCC(=O)N1C[C@@H](C)[C@@H](OC)CN(C)C(=O)c2ccc(NC(=O)C3CCC3)cc2OC[C@H]1C do in these assays?
MLL AF4-AF9 inh: -3.5; FGF22 binding: inactive

What do the screens show for `C[C@@H]1CCCCO[C@H](CN(C)CC2CCCCC2)[C@H](C)CN([C@H](C)CO)C(=O)c2cc(NS(=O)(=O)c3cccs3)ccc2O1`?
MLL AF4-AF9 inh: 17; FGF22 binding: inactive

How did C[C@H](CO)N1C[C@H](C)[C@H](CN(C)Cc2ccncc2)Oc2c(NC(=O)c3ccncc3)cccc2C1=O do in these assays?
MLL AF4-AF9 inh: -4.4; FGF22 binding: inactive

How did C[C@@H]1CN([C@@H](C)CO)C(=O)c2cccc(NS(=O)(=O)c3ccc(Cl)cc3)c2O[C@@H]1CN(C)CC1CCCCC1 do in these assays?
MLL AF4-AF9 inh: 3.5; FGF22 binding: inactive

What do the screens show for `C[C@H]1CN([C@@H](C)CO)C(=O)c2cc(NC(=O)NC3CCCCC3)ccc2O[C@@H]1CN(C)C(=O)Nc1ccc2c(c1)OCO2`?
MLL AF4-AF9 inh: 0.2; FGF22 binding: inactive

How did COc1ccc2c3c(n(C)c2c1)[C@H](CO)N(C(=O)Nc1ccc(F)cc1)CC31CCN(C(=O)NC2CCCC2)CC1 do in these assays?
MLL AF4-AF9 inh: 2.1; FGF22 binding: inactive

What do the screens show for `Cc1ccc(S(=O)(=O)N(C)C[C@@H]2OCCCC[C@H](C)Oc3ccc(NS(=O)(=O)c4cccs4)cc3C(=O)N([C@@H](C)CO)C[C@H]2C)cc1`?
MLL AF4-AF9 inh: 0.1; FGF22 binding: inactive

How did COc1ccccc1CNC(=O)C[C@H]1C=C[C@@H](NC(=O)CN(C)C)[C@@H](CO)O1 do in these assays?
MLL AF4-AF9 inh: 1.8; FGF22 binding: inactive

Results for COc1ccc(NC(=O)Nc2ccc3c(c2)[C@H]2C[C@H](CC(=O)N4CCCCC4)O[C@@H](CO)[C@H]2O3)cc1 ?
MLL AF4-AF9 inh: 3.5; FGF22 binding: inactive

How did C[C@H]1CN([C@@H](C)CO)C(=O)c2cccc(NC(=O)Nc3ccc(C(F)(F)F)cc3)c2O[C@@H]1CN(C)Cc1ccc(-c2ccccc2)cc1 do in these assays?
MLL AF4-AF9 inh: 6.8; FGF22 binding: inactive

Results for COCC(=O)N1C[C@H](C)[C@@H](OC)CN(C)C(=O)c2cc(NC(=O)c3ccc(F)cc3)ccc2OC[C@@H]1C ?
MLL AF4-AF9 inh: 1.6; FGF22 binding: inactive

How did COC(=O)c1c(-c2ccc(OC)cc2)c2c(c3c4cc(F)ccc4n(S(=O)(=O)c4ccc(C)cc4)c13)C(=O)N(C)C2 do in these assays?
MLL AF4-AF9 inh: -0.8; FGF22 binding: inactive

How did O=C(C[C@@H]1CC[C@@H]2[C@H](COC[C@H](O)CN2S(=O)(=O)c2ccc(Cl)cc2)O1)N[C@@H]1CCN(Cc2ccccc2)C1 do in these assays?
MLL AF4-AF9 inh: 4.0; FGF22 binding: inactive

What do the screens show for `COc1ccc(NC(=O)N(C)C[C@@H]2Oc3ccc(NC(=O)C4CCCCC4)cc3C(=O)N([C@@H](C)CO)C[C@@H]2C)cc1`?
MLL AF4-AF9 inh: -2.7; FGF22 binding: inactive

Results for CCCC(=O)Nc1ccc2c(c1)C(=O)N(C)C[C@H](OC)[C@@H](C)CN(C(=O)c1cnccn1)[C@H](C)CO2 ?
MLL AF4-AF9 inh: 0.4; FGF22 binding: inactive

Results for C[C@H]1CN([C@@H](C)CO)C(=O)Cc2cc(NS(=O)(=O)c3cn(C)cn3)ccc2O[C@H]1CN(C)Cc1ccccc1 ?
MLL AF4-AF9 inh: -3.7; FGF22 binding: inactive

How did COc1ccc(CN(C)C[C@H]2Oc3ccc(NS(=O)(=O)c4ccc(F)cc4)cc3C(=O)N([C@H](C)CO)C[C@H]2C)cc1 do in these assays?
MLL AF4-AF9 inh: 0.4; FGF22 binding: inactive

Results for C[C@H](CO)N1C[C@H](C)[C@H](CN(C)S(=O)(=O)CC(F)(F)F)OCc2ccccc2-c2ccccc2C1=O ?
MLL AF4-AF9 inh: -4.2; FGF22 binding: inactive

Results for CCNC(=O)C[C@@H]1CC[C@@H]2[C@H](COc3ccc(NC(=O)C4CCCCC4)cc3C(=O)N2C)O1 ?
MLL AF4-AF9 inh: -1.5; FGF22 binding: inactive

How did CO[C@H]1CC[C@H]2CCOc3ccc(C#N)cc3C(=O)N(C)C[C@H](C)C(=O)N(C)C[C@H]1O2 do in these assays?
MLL AF4-AF9 inh: -0.2; FGF22 binding: inactive

Results for C[C@H]1CCCCO[C@@H](CN(C)C(=O)C2CCCCC2)[C@@H](C)CN([C@@H](C)CO)C(=O)c2cc(NC(=O)Nc3ccc(F)cc3)ccc2O1 ?
MLL AF4-AF9 inh: 0.3; FGF22 binding: inactive

What do the screens show for `O=C(C[C@@H]1CC[C@H]2[C@@H](COC[C@@H](O)CN2Cc2nccs2)O1)NCc1ccc(-c2ccccc2)cc1`?
MLL AF4-AF9 inh: -2.2; FGF22 binding: inactive

How did C[C@H](CO)N1C[C@H](C)[C@@H](CN(C)C(=O)Cc2cccnc2)Oc2ncc(C#CCc3ccccc3)cc2C1=O do in these assays?
MLL AF4-AF9 inh: 1.7&-20; FGF22 binding: inactive

How did C[C@H]1CCCCO[C@H](CN(C)C(=O)CCC(F)(F)F)[C@@H](C)CN([C@@H](C)CO)C(=O)c2cc(NC(=O)c3ccccc3)ccc2O1 do in these assays?
MLL AF4-AF9 inh: 0.0; FGF22 binding: inactive

How did C/C=C/c1cnc2c(c1)C(=O)N([C@@H](C)CO)C[C@H](C)[C@H](CN(C)S(=O)(=O)c1ccccc1)O2 do in these assays?
MLL AF4-AF9 inh: -2.5; FGF22 binding: inactive

What do the screens show for `C[C@@H]1CN([C@@H](C)CO)C(=O)c2cccc(NC(=O)c3nc4ccccc4s3)c2O[C@@H]1CN(C)C(=O)NC1CCCCC1`?
MLL AF4-AF9 inh: 5.5; FGF22 binding: inactive

What do the screens show for `CCC(=O)N1[C@H](CO)[C@H](c2ccc(-c3ccccc3OC)cc2)C12CN(C(C)=O)C2`?
MLL AF4-AF9 inh: -0.8; FGF22 binding: inactive

What do the screens show for `COc1ccc(NC(=O)N(C)C[C@H]2OCCCC[C@H](C)Oc3ccc(NC(=O)Nc4ccc(C(F)(F)F)cc4)cc3C(=O)N([C@@H](C)CO)C[C@@H]2C)cc1`?
MLL AF4-AF9 inh: -0.6; FGF22 binding: inactive

How did O=C(C[C@H]1C[C@H]2c3cc(NS(=O)(=O)c4ccc(F)cc4)ccc3O[C@H]2[C@@H](CO)O1)NCC(F)(F)F do in these assays?
MLL AF4-AF9 inh: -0.3; FGF22 binding: inactive

What do the screens show for `COCC#Cc1ccc([C@H]2[C@H]3CN(Cc4ccncc4)CCCCN3[C@H]2CO)cc1`?
MLL AF4-AF9 inh: -5.6; FGF22 binding: inactive

How did C[C@@H](O)C#Cc1ccc2c(c1)O[C@@H](CN(C)C(=O)CC1CC1)[C@@H](C)CN([C@@H](C)CO)S2(=O)=O do in these assays?
MLL AF4-AF9 inh: -0.6; FGF22 binding: inactive

What do the screens show for `O=S(=O)(c1ccccc1)N1CC[C@@H]2[C@@H](CO)Nc3ccc(C#Cc4cccc(F)c4)cc3[C@@H]21`?
MLL AF4-AF9 inh: -2.7; FGF22 binding: inactive

Results for CCCC(=O)Nc1ccc2c(c1)OC[C@@H](C)N(C(=O)c1ccccn1)C[C@@H](C)[C@@H](OC)CN(C)C2=O ?
MLL AF4-AF9 inh: -31; FGF22 binding: inactive

Results for Cc1noc(C)c1NC(=O)Nc1ccc2c(c1)C(=O)N([C@H](C)CO)C[C@H](C)[C@H](CN(C)CC1CC1)OCCCC[C@H](C)O2 ?
MLL AF4-AF9 inh: -4.5; FGF22 binding: inactive

Results for CC(C)NC(=O)Nc1ccc2c(c1)CC(=O)N([C@@H](C)CO)C[C@@H](C)[C@H](CN(C)C(=O)NC(C)C)O2 ?
MLL AF4-AF9 inh: -3.0; FGF22 binding: inactive

How did C[C@H](CO)N1C[C@H](C)[C@H](CN(C)Cc2ccncc2)Oc2ccc(NC(=O)Cn3cnnn3)cc2C1=O do in these assays?
MLL AF4-AF9 inh: -0.7; FGF22 binding: inactive

What do the screens show for `CCCC#Cc1ccc2c(c1)O[C@@H](CN(C)C(=O)CC1CC1)[C@H](C)CN([C@@H](C)CO)S2(=O)=O`?
MLL AF4-AF9 inh: 2.2; FGF22 binding: inactive

How did C[C@@H]1CN([C@@H](C)CO)C(=O)Cc2cc(NC(=O)Nc3ccc(F)cc3)ccc2O[C@H]1CN(C)S(=O)(=O)c1cccs1 do in these assays?
MLL AF4-AF9 inh: 2.5; FGF22 binding: inactive

What do the screens show for `C[C@@H]1CCCCO[C@@H](CN(C)C)[C@@H](C)CN([C@H](C)CO)C(=O)c2cc(NS(C)(=O)=O)ccc2O1`?
MLL AF4-AF9 inh: 2.1; FGF22 binding: inactive

Results for CO[C@@H]1CN(C)C(=O)c2ccc(NC(=O)C3CC3)cc2OC[C@@H](C)N(S(=O)(=O)c2ccc(Cl)cc2)C[C@H]1C ?
MLL AF4-AF9 inh: 4.0; FGF22 binding: inactive

Results for COCCNC(=O)C[C@H]1CC[C@H]2[C@@H](COc3ccc(NC(=O)CC(F)(F)F)cc3C(=O)N2C)O1 ?
MLL AF4-AF9 inh: -9.7; FGF22 binding: inactive

Results for CC(C)CC#Cc1ccc2c(c1)O[C@H](CN(C)C(=O)Cc1ccccn1)[C@H](C)CN([C@H](C)CO)S2(=O)=O ?
MLL AF4-AF9 inh: 8.1; FGF22 binding: inactive

What do the screens show for `COc1ccc2c3c(n(C)c2c1)[C@@H](CO)N(C(=O)c1ccccn1)CC31CCN(C(=O)Cc2ccccc2)CC1`?
MLL AF4-AF9 inh: 0.9; FGF22 binding: inactive

How did O=C(CCN1CCCCC1)NCC[C@H]1CC[C@H](NC(=O)C2CCC2)[C@H](CO)O1 do in these assays?
MLL AF4-AF9 inh: -1.9; FGF22 binding: inactive

How did CCC(=O)Nc1ccc2c(c1)C(=O)N(C)C[C@H](OC)[C@H](C)CN(C(=O)CC1CC1)[C@H](C)CO2 do in these assays?
MLL AF4-AF9 inh: -1.2; FGF22 binding: inactive

Results for CCCC(=O)Nc1ccc2c(c1)C(=O)N(C)C[C@@H](OC)[C@@H](C)CN(C(=O)c1ccccc1F)[C@@H](C)CO2 ?
MLL AF4-AF9 inh: -0.3; FGF22 binding: inactive

Results for C/C=C/c1ccc2c(c1)O[C@H](CN(C)Cc1ccccc1)[C@H](C)CN([C@@H](C)CO)S2(=O)=O ?
MLL AF4-AF9 inh: 11; FGF22 binding: inactive

What do the screens show for `Cn1cnc(S(=O)(=O)N2CC[C@@H]3[C@@H](CO)Nc4ccc(C#Cc5ccccc5F)cc4[C@@H]32)c1`?
MLL AF4-AF9 inh: 16; FGF22 binding: inactive

What do the screens show for `COc1ccccc1CNC(=O)C[C@@H]1CC[C@H]2[C@@H](COC[C@@H](O)CN2C(=O)Nc2ccc(Cl)cc2)O1`?
MLL AF4-AF9 inh: -0.4; FGF22 binding: inactive

How did COc1ccc(CNC(=O)C[C@H]2CC[C@@H]3[C@H](COc4ccc(NC(=O)C(C)C)cc4C(=O)N3C)O2)cc1 do in these assays?
MLL AF4-AF9 inh: -3.2; FGF22 binding: inactive

How did C[C@@H]1CCCCO[C@H](CN(C)Cc2ccncc2)[C@H](C)CN([C@@H](C)CO)C(=O)c2cc(NC(=O)C3CCCCC3)ccc2O1 do in these assays?
MLL AF4-AF9 inh: -3.8; FGF22 binding: inactive

What do the screens show for `C[C@@H]1CN([C@@H](C)CO)C(=O)c2cc(C3=CCCC3)cnc2O[C@H]1CN(C)S(C)(=O)=O`?
MLL AF4-AF9 inh: -2.9; FGF22 binding: inactive

What do the screens show for `COc1ccc(S(=O)(=O)Nc2ccc3c(c2)C(=O)N([C@H](C)CO)C[C@H](C)[C@H](CN(C)C(=O)Nc2ccc4c(c2)OCO4)OCCCC[C@H](C)O3)cc1`?
MLL AF4-AF9 inh: -0.1; FGF22 binding: inactive
